Screening data deposited in PubChem by several laboratories.
Ecoli growth = E. coli growth inhibition, primary screen, OD600. Escherichia coli growth, 23 h; active compounds read low. OD600 absorbance (no concentration beside the values). 330,000 tested, 0.21% active;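 active = OD600 absorbance below the run mean of sample wells minus 3.6 SD, in any replicate, cut at about 0.56 in these data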;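 also: stock transfer was 300 nL into about 60 µL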
Ecoli rRNA inh = reduced GFP signal of wild-type E. coli, primary screen, bacterial rRNA inhibitor project, GFP/RFP fluorescence, OD600, single point | E. coli WT GFP vs humanized-ribosome RFP mutants, 24 h; active compounds read low; DMSO median 0, no signal -100 | GFP signal change (wild-type ribosome), % (concentration not given with the values) | 350,000 tested, 1.6% active | AID 720706, 2013;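 active = significant combined selectivity score with lowered wild-type GFP, culture density cut under 30%, mutant RFP and density less affected; inactive = any of these conditions unmet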; also: one replicate is shown; some compounds called inactive have numbers as strong as hits
AF4-AF9 inh = inhibitors of AF4 peptide binding to AF9, primary screen, biochemical, AlphaScreen, biotin-AF4 peptide, FLAG-AF9, single point | inhibition, % at 10 µM | 350,000 tested, 0.47% active | Protein AF-9 (Homo sapiens), P42568;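 active = every replicate reaching a set inhibition limit, whatever the replicate mean, cut at about 25% in these data; inconclusive = mean inhibition reaches that limit but some replicates miss it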;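 also: 0% = plate neutral control median and 100% = total signal loss; the record names both 10 and 1 µM as test concentration; the first replicate is given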
Target sequence (P42568 whole entry, looked up): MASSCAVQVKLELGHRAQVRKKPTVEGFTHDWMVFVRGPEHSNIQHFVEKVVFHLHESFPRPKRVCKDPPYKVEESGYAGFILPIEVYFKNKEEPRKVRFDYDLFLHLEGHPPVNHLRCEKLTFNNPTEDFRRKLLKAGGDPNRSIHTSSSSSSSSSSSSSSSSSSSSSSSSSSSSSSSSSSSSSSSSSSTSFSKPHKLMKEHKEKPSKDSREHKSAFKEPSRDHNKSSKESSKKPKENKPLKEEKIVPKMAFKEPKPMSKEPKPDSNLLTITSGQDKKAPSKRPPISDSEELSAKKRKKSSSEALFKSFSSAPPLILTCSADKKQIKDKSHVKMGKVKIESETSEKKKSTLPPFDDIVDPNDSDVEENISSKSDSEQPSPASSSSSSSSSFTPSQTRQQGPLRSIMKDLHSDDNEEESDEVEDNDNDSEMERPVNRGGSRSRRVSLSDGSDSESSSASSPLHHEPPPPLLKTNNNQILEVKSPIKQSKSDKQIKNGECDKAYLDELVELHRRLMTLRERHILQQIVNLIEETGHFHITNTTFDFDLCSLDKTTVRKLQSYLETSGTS
Bfl-1 A1 inh = caspase 3/7 activation in MEF A1-2A-BIM cells, primary screen, A1 inhibitor project, cell-based, luminescence, HTS; Caspase-Glo 3/7 luminescence, 3 h; percent of clofoctol response, vehicle zero; caspase activation, % (test concentration not listed); 330,000 tested, 0.066% active; AID 2462, 2010;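 active = over half of replicate activation scores above 10%, or exactly half above 10 with the replicate mean above 10; inconclusive = replicate mean below 10 yet half the replicates above 10; inactive = over half of replicates below 10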;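 also: wells of about 30 µL received 50 nL stock; many hits fall short of the cut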
T cruzi inh = inhibitors of intracellular T. cruzi growth, primary screen, luminescence, NIH3T3 host cells; T. cruzi beta-gal in NIH3T3, 90 h; inhibition, % (no concentration beside the values); 300,000 tested, 1.4% active;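 active = mean inhibition across valid replicates above about 55%, limit read from the data; inconclusive = mean below that limit but half or more replicates reach it; inactive = mean below it, under half of replicates reach it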;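 also: signal also drops with host cell toxicity which is not excluded here; 0% = plate median of DMSO wells and 100% = zero luminescence signal; higher percent means less beta-gal luminescence so fewer parasites; stock transfer was 50 nL into about 50 µL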
FGF22 binding = binders of human FGF22 protein, primary screen, FGF22 synaptogenesis inhibitor project, biophysical, thermal shift, single point; recombinant FGF22 thermal shift, SYPRO orange fluorescence; percent of sucrose octasulfate shift, DMSO zero; calls only at 9.99 µM; 340,000 tested, 1.5% active;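 active = melting point raised past a set limit in the mean and every replicate; inconclusive = no clear call; three in four hits are not shown here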
Target sequence (Q9HCT0 whole entry, looked up): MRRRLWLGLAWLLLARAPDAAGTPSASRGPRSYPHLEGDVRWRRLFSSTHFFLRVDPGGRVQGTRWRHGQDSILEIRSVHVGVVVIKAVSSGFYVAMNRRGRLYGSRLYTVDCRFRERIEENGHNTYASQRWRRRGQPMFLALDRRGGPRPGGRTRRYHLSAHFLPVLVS
UCH37 inh = inhibitors of human UCH37 deubiquitinase, primary screen, biochemical, Ub-AMC cleavage, fluorescence; inhibition, % (concentration not given with the values); 330,000 tested, 0.33% active; AID 588478, 2011; Ubiquitin carboxyl-terminal hydrolase isozyme L5 (Homo sapiens), Q9Y5K5; purified proteasome/UCH37;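 active = mean of two replicates above 20%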;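 also: 0% = compound-free wells with enzyme and 100% = wells lacking proteasome; stock transfer was 100 nL into about 20 µL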
Target sequence (Q9Y5K5 whole entry, looked up): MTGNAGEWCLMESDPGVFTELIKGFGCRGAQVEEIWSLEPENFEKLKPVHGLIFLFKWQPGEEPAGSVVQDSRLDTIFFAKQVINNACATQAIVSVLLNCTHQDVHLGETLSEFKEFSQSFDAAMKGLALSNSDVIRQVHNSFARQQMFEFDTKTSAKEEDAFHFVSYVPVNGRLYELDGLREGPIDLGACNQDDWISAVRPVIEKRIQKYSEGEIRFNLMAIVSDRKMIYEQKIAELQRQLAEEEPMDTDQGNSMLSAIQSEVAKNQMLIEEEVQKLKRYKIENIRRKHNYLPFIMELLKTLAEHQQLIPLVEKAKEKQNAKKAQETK
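system = Proteasome-associated human UCH37 deubiquitinase | amount = 0.15 nM proteasome as dispensed | medium = pH 7.4 Tris-HCl (50 mM) with ovalbumin, ATP-MgCl2, DTT | incubation = 30 min preincubation with enzyme, 25 min cleavage at room temperature | detection = AMC fluorescence 355/460 nm | read-out basis = percent inhibition | controls = no-proteasome and no-compound wells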
Beta apoptosis = inhibitors of cytokine-induced beta cell apoptosis, primary screen, luminescence. protection from apoptosis, % (concentration not given with the values). 300,000 tested, 0.8% active. INS-1E cytokine-induced death, ATP luminescence, 48 h; percent of positive-control rescue, neutral wells zero;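 active = all replicates at 75% or more, or half of them and the mean; inconclusive = half reach 75% but not the mean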;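 also: 0% = cytokine-treated negative control wells and 100% = positive control rescue; higher means more ATP so stronger rescue from cytokine killing; wells of about 40 µL received 100 nL stock; the first replicate is given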
Ecoli rRNA inh OD600 = further read-out of Ecoli rRNA inh, marked with its call; OD600 change, %; measured here: OD600 growth;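 optical density of the mix in the first replicate; 0 = DMSO median and -100 = no signal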
Ecoli rRNA inh RFP = also measured in Ecoli rRNA inh; calls as there; RFP signal change, %; measured here: RFP humanized mutant strains;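 first replicate; 0 = DMSO median and -100 = no signal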
* marks the source's active call; other numbers are inactive results; i = inactive; ? = inconclusive; / = no result given; & = joins results of further samples.

SMILES	Ecoli growth	Ecoli rRNA inh	Ecoli rRNA inh OD600	Ecoli rRNA inh RFP	AF4-AF9 inh	Bfl-1 A1 inh	T cruzi inh	FGF22 binding	UCH37 inh	Beta apoptosis
Cc1cccc(C)c1NC1=C(Cl)C(=O)OC1OC(C)C (centres undefined)	0.69	15	16	3.7	-2.3	0.6	4	i	-0.2	1
COc1ccc(NC(=O)Nc2cccc3c2O[C@H](CN(C)S(=O)(=O)c2cn(C)cn2)[C@@H](C)CN([C@H](C)CO)C3=O)cc1	0.79	0&4	-17&2	-3.0&-8.6	-13&-6.4	-0.3	/	i	-14	0
COc1cccc(-c2c(C#N)c(N)nc3c2c(=O)nc2sccn23)c1	0.71	/	/	/	/	-1.1	-4	/	7.2	2
COc1cccc(C(=O)N2CCN(Cc3ccccn3)CC2)c1OC	0.7	/	/	/	/	0.3	4	/	4.5	-7
CC(=O)c1ccc(N2CCN(S(=O)(=O)c3cc4c(cc3C)NC(=O)CO4)CC2)cc1	0.71	4	2	0.6	-0.8	/	13	i	-9.4	/
Fc1ccccc1-n1cn[nH]c1=S	0.65	4	-13	-3.5	7.0	1.2	0	i	0.3	-1
CCCn1c(=O)c(C(=O)NCc2ccccc2)c(O)c2ccccc21	/	16	9	3.6	3.0	-0.1	6	i	/	-3
CC(=O)N1CCN(c2ccc(NC(=O)c3ccccc3C)cc2)CC1	0.66	23	4	3.8	1.9	0.6	-15	i	1.9	/
CN(C)C(CNS(=O)(=O)c1cc([N+](=O)[O-])ccc1Cl)c1ccco1 (centres undefined)	0.66	-2.3*	6.0*	2.4*	-1.1	-1.0	/	i	1.9	-2
CN(C)C(=C(C#N)C#N)N1CCN(c2ccc(Cl)cc2)CC1	0.68	6	10	-1.0	2.4	1.3	-1	i	5.2	/
CC1(c2cccc(Br)c2)NC(=O)N(CC(=O)c2ccc3c(c2)OCCO3)C1=O (centres undefined)	0.69	/	/	/	-2.6	0.8	/	i	-3.0	4
CN=C(Nc1cc(C)nn1CCC#N)c1ccc(F)cc1	0.67	8	4	0.8	-9.7	1.1	9	i	1.5	0
CCN(C(=O)COC(=O)c1ccc2[nH]c(C)c(C)c2c1)c1c(N)n(Cc2ccccc2)c(=O)[nH]c1=O	0.66	6	-2	4.0	-1.7	/	/	i	-2.2	/
Cn1cccc1Cc1nnc(SCC(=O)Nc2nccs2)n1C	0.66	0	-3	-0.1	-1.7	-0.2	-8	i	-0.4	-3
CCOC(=O)/C(C#N)=C1/C=CNC(=O)N1	0.68	/	/	/	/	-0.2	-18	/	9.0	-4
CC(Oc1ccccc1)C(=O)NN1Cc2ccccc2C1=N (centres undefined)	0.66	12	13	-0.5	-1.7	-0.3	-12	i	1.1	/
CC(C)CNS(=O)(=O)c1ccc(OCC(=O)NCc2ccco2)cc1	0.64	/	/	/	/	0.1	-1	/	-0.5	-3
CCOc1ccc(C(F)(F)F)cc1NC(C)=O	0.69	/	/	/	/	0.3	/	/	-0.2	-2
O=C(c1ccc2c(c1)C(=O)N(Cc1ccncc1)C2=O)N1CCN(S(=O)(=O)c2ccc(OC(F)(F)F)cc2)CC1	0.69	7	13	-1.2	1.4	/	/	i	1.2	/
N#Cc1c(SCc2cccc(Cl)c2)sc(C(=O)c2ccccc2)c1N	0.73	/	/	/	/	-0.4	-3	/	-3.0	-10
COC(=O)c1ccccc1NC(=O)COC(=O)/C=C/c1cccs1	0.75	9	-6	1.5	-0.5	-0.3	/	i	2.9	4
CCOC(=O)c1sc(NC(=O)c2cccnc2)nc1C	0.74	1	7	1.5	-1.0	-2.4	-13	i	8.3	/
CCCCOC(=O)CSC(=S)N(C)Cc1cccs1	0.7	/	/	/	/	0.7	-4	/	1.3	-7
Cc1ccc(S(=O)(=O)N2CCN(C(=O)c3cccs3)CC2)c(C)c1	0.69	-12	-13	3.3	-1.9	0.5	14	/	-0.3	3
COc1ccccc1NC(=O)COC(=O)/C=C/c1ccccc1[N+](=O)[O-]	0.67	/	/	/	/	0.4	-28	/	-1.0	0

Limited to Ecoli rRNA inh OD600, Ecoli rRNA inh RFP and Beta apoptosis, for some of the entries so far:
Molecule	Ecoli rRNA inh OD600	Ecoli rRNA inh RFP	Beta apoptosis
CC(=O)N1CCN(c2ccc(NC(=O)c3ccccc3C)cc2)CC1	4	3.8	/
CN(C)C(CNS(=O)(=O)c1cc([N+](=O)[O-])ccc1Cl)c1ccco1 (centres undefined)	6.0*	2.4*	-2

Further records
SMILES	Ecoli growth	Ecoli rRNA inh	Ecoli rRNA inh OD600	Ecoli rRNA inh RFP	AF4-AF9 inh	Bfl-1 A1 inh	T cruzi inh	FGF22 binding	UCH37 inh	Beta apoptosis
C/C(=N\NC(=O)c1ccc2c(c1)OCO2)c1ccc(NS(C)(=O)=O)cc1	/	15	13	0.0	-3.5	-0.2	-9	i	/	5
COc1cccc(C(C(=O)NC2CCCCC2)N(C(=O)CNC(=O)c2ccco2)c2cccnc2)c1 (centres undefined)	0.66	5	18	1.0	0.5	-0.6	0	i	-1.8	-2
CN(CCCNC(=O)C1CCC(=O)N1Cc1ccccc1Cl)c1ccccc1 (centres undefined)	0.71	/	/	/	/	0.5	-18	/	1.2	4
COc1cc(NC(=O)CCCl)cc(-n2cnnn2)c1	0.7	3	6	0.1	6.3	-0.4	4	i	0.4	/
COc1ccc(Cc2nc3ccc(C(=O)N(C)CCc4cnn(C)c4)cc3o2)cc1OC	0.74	6	10	3.5	1.0	/	-2	i	-0.7	/
CCC(C)[C@H]1COCCS(=O)(=O)N1Cc1ccccc1 (some centres undefined)	0.79	2	7	2.6	-1.2	0.9	-12	i	5.1	3
CN(Cc1ccccc1)C(=O)c1ccccc1NC(=O)C1=CSCCO1	0.72	2	1	-0.4	0.6	-0.4	16	i	0.9	-2
O=C(CSc1nc(Cc2ccccc2)nc2ccccc12)Nc1ccc2c(c1)OCCO2	0.69	16	18	-2.1	3.1	0.8	39	i	2.4	/
NC(=O)c1c(NC(=O)Cc2ccccc2)sc2c1CCN(Cc1ccccc1)C2	0.74	-3	-5	0.9	-9.0	-1.0	-4	i	-5.7	10
O=C(CC1Nc2ccccc2NC1=O)Nc1ccc2c(c1)OCO2 (centres undefined)	0.68	9	7	1.7	1.4	0.1	-14	i	2.1	-5
Cc1cc(NC(=O)CN2C(=O)NC(C)(c3ccc(Cl)cc3)C2=O)no1 (centres undefined)	0.68	8	1	4.1	-1.2	0.2	-7	i	5.1	1
CCn1nnc(NC(=O)c2ccc(-c3ccc(Cl)cc3)o2)n1	0.63	/	/	/	/	0.6	4	/	-39	-7
O=S(=O)(c1ccccc1)N1CCN(C(=S)NCCc2ccccc2)CC1	0.7	-10	-32	1.2	-1.3	0.6	3	i	3.3	5
COc1ccc(-c2cc3c(=O)n(CC(=O)NCCCN4CCC(N5CCCCC5)CC4)nc(C)n3n2)cc1	/	4	10	2.2	7.6	-0.4	56*	i	/	-12
CCOC(=O)c1sc(=S)n(C)c1NC(=O)c1ccc(C(C)(C)C)cc1	0.68	-31	-59	-10	6.1	0.0	10	i	3.3	7
CCOc1ccc(S(=O)(=O)N2CCN=C2c2ccccc2)c(C)c1C	0.73	-28	-38	-6.1	0.3	0.6	-1	i	2.0	-6
COc1ccc(/C(O)=C2/C(=O)C(=O)N(Cc3ccco3)C2c2cccs2)cc1 (centres undefined)	0.61	/	/	/	/	0.3	-4	/	9.9	/
O=c1cc(NCc2ccccc2)c2ccccc2o1	0.69	/	/	/	/	0.1	3	/	2.7	5
CC(C)(C)c1cc(-c2nc(N)nc(N)n2)cc(C(C)(C)C)c1	0.69	-14	-12	-1.8	-13	0.0	14	i	6.1	-15
O=C(CNS(=O)(=O)c1ccc(Br)s1)N1CCC(N2CCCCC2)CC1	0.75	/	/	/	/	0.1	/	/	-0.2	-2
COc1ccccc1-c1cc(C(F)(F)F)nc(N2CCCCC2)n1	0.7	/	/	/	/	0.1	0	/	-31	3
O=C1c2ccccc2C(=O)N1CCc1nc2ccccc2c(=O)n1CCCn1ccnc1	0.73	/	/	/	/	-0.2	0	/	0.0	/
CN(C)CCCN(C(=O)c1ccc(S(=O)(=O)N2CCCCCC2)cc1)c1nc2c(F)cc(F)cc2s1	0.69	-3	-23	5.8	17	0.6	53	i	5.6	/
Cc1nc2ccc(NC(=O)C(F)(F)F)cc2o1	0.68	/	/	/	/	0.3	-19	/	1.2	-1
Cc1oc(-c2ccccc2F)nc1CS(=O)(=O)CC(=O)NCCCN1CCc2ccccc2C1	0.78	2	2	2.8	2.8	0.1	3	i	-0.5	5
O=C(OCCN=C1NS(=O)(=O)c2ccccc21)C1CC(=O)N(c2ccc(Cl)cc2)C1 (centres undefined)	0.68	/	/	/	/	0.0	-13	/	-1.2	-3
CCCNC(=O)c1ccc(N2CCC3(CC2)CC(c2cccc(Br)c2)=NO3)c(NC(=O)c2cccc(C)c2)c1	0.75	3	-1	-7.4	-10	0.1	21	i	-195	0
O=C(Nc1ccc2c(c1)OCO2)c1cc(Cl)ccn1	0.71	3	7	-1.5	-1.5	-13	/	i	3.8	2
NC(=S)Nc1cccc(Cl)c1	/	0	7	-1.6	-0.8	?	-11	i	/	-6

Ordered by formula weight (highest first): part of the list above.
SMILES	Ecoli growth	Ecoli rRNA inh	Ecoli rRNA inh OD600	Ecoli rRNA inh RFP	AF4-AF9 inh	Bfl-1 A1 inh	T cruzi inh	FGF22 binding	UCH37 inh	Beta apoptosis
O=C(CSc1nc(Cc2ccccc2)nc2ccccc12)Nc1ccc2c(c1)OCCO2	0.69	16	18	-2.1	3.1	0.8	39	i	2.4	/
CN(CCCNC(=O)C1CCC(=O)N1Cc1ccccc1Cl)c1ccccc1 (centres undefined)	0.71	/	/	/	/	0.5	-18	/	1.2	4
CN(Cc1ccccc1)C(=O)c1ccccc1NC(=O)C1=CSCCO1	0.72	2	1	-0.4	0.6	-0.4	16	i	0.9	-2
CCn1nnc(NC(=O)c2ccc(-c3ccc(Cl)cc3)o2)n1	0.63	/	/	/	/	0.6	4	/	-39	-7
CC(C)(C)c1cc(-c2nc(N)nc(N)n2)cc(C(C)(C)C)c1	0.69	-14	-12	-1.8	-13	0.0	14	i	6.1	-15

Not all compounds are listed; rates above refer to the full screens.
